Screens (PubChem)
Calb biofilm kill: mixture kills Candida albicans biofilm cells; C. albicans biofilm persisters + clotrimazole, fluorescence viability; primary screen in compound mixtures of four per well; 0.02% of 120,000 active; inhibition, % at 7.6 µM;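 active means inhibition above 30.3% in the primary screen of four-compound pools, then above 30% when the compound was retested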;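 further: compounds exposed to preformed 24 h biofilms for 48 h; the number belongs to the whole pool; some results filed as inactive read as strong as hits; inactives centre near 12; 0% = biofilm with clotrimazole alone and 100% = kill control; retested singly at about 60 µM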
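Probe or stimulus – Clotrimazole 50 µg/mL co-treatment · System – C. albicans biofilms · Schedule – 24 h biofilm formation, then 48 h compound exposure, 37 °C · Evaluation – percent inhibition of biofilm viability · Technique – 2-h Alamar Blue fluorescence, 535/590 nm excitation/emission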
An asterisk follows results filed as active. This is a subset; rates above refer to the full screens.

SMILES	Calb biofilm kill
Fc1ccc(C2=CC(c3cccs3)n3nnnc3N2)cc1 (stereo not given)	26
N/C(=N\OC(=O)CCCc1ccccc1)c1ccc([N+](=O)[O-])cc1	8
Oc1ccc(Br)cc1C=Nc1cccn2cc(-c3ccccc3)nc12	6
COCCCNC(=O)CN(c1cc(Cl)cc(Cl)c1)S(C)(=O)=O	6
O=C1N(Cc2cccnc2)C[C@@H]2C[C@@H](c3ccccc3C(F)(F)F)N3CCC[C@@]123	9
O=C(NCc1ccco1)c1cc([N+](=O)[O-])ccc1N1CCCCC1	4
COc1ccc2nc(NC(=O)C3=NN(c4ccccc4)C(=O)CC3)sc2c1	-2
COc1cnc(-c2ccccc2)nc1Oc1ccc(Cl)cc1C	12
CC(NC(=O)/C=C/c1ccc(Br)cc1)c1ccccc1 (stereo not given)	8
O=C(O)c1ccc(/C=C2\SC(=S)N(Nc3ccccc3)C2=O)cc1	17
c1ccc(C2CCC(N3CCNCC3)CC2)cc1 (stereo not given)	11
N#Cc1cc(N2CCOCC2)nc2ccccc12	18
Cc1cnc(NC(=O)/C=C/c2ccc(Br)o2)s1	18
Clc1ccccc1Cn1c(/C=C/c2ccco2)nc2ccccc21	7
O=c1c(Cc2c(F)cccc2Cl)c(O)ccn1CCc1c[nH]c2ccccc12	16
Cc1cc(C)c2c(N)c(C(=O)NNC(=O)c3ccccc3)sc2n1	10
O=C(/C=C/c1c(F)cccc1Cl)NCc1ccco1	15
NS(=O)(=O)c1ccc(CCNC(=O)CN2CCCCC2)cc1	12
Cc1cccc(N(C)C(=O)c2cc3c(=O)[nH]c4ccc(C)cc4c3s2)c1	36
Cc1ccc(NC(=O)CN(C)C(=O)Cn2cc(C(F)(F)F)ccc2=O)cc1	15
O=C(Nc1ccc([N+](=O)[O-])cc1)c1cncc(Br)c1	13
Cc1cc(C(=O)O)oc(=O)c1	20
CN(c1cccc(NC(=O)c2cccc([N+](=O)[O-])c2)c1)S(C)(=O)=O	-2
CCOC(=O)Nc1cccc(C(=O)O)c1	5
CC(C)Oc1ccc(CCC(=O)NNC(=O)CCC(=O)O)cc1	12
CCN(CC(=O)NCCC1=CCCCC1)S(=O)(=O)c1ccccc1	23
COc1ccc(Nc2cc(C(=O)NCc3ccco3)c3ccccc3n2)cc1	10
O=C(NCc1ccccc1)c1ccc(OCC2CCCO2)cc1 (stereo not given)	4
Cc1ccc(CN2CCN(Cc3nc4c(s3)CCCC4)CC2CCO)cc1 (stereo not given)	16
C=CCNC(=O)COC(=O)c1ccc(C)c(NC(=O)c2ccco2)c1	9
O=S(=O)(CS(=O)(=O)c1ccc(Cl)cc1)c1ccc(Cl)cc1	5
CCCc1cc(-c2n[nH]c(=S)n2CC)c2ccccc2n1	3
O=C(NNc1cc(N2CCCC2)nc(N2CCCC2)n1)c1ccc([N+](=O)[O-])cc1	9
Cc1ccc(-c2nc(C=Nc3ccc(O)cc3)c(O)o2)cc1	19
Cc1ccc2c(c1)c1c(n2CC(O)CN2CCCCC2C)CCCC1 (stereo not given)	22
CCCCSc1nc2c(cnn2-c2ccccc2)c(=O)n1N	14
Cc1ccc(C#N)c(SCc2ccccc2F)n1	7
O=C(CNc1ccccc1)N/N=C/c1cn(-c2ccccc2)nc1-c1ccccc1	7
Cc1c(C(=O)NN2CCOCC2)oc2c1ccc1ccccc12	13
OCCN(CC#CC(O)(c1ccccc1)c1cccc(F)c1)CCO (stereo not given)	29
C=CCNC(=O)C1CC1(c1ccccc1)c1ccccc1 (stereo not given)	10
CCOc1cc(/C=C2/NC(=O)N(CC(=O)Nc3cccc(C)c3)C2=O)ccc1O	7
O=C(NCc1ccco1)c1cc2sccc2n1Cc1ccccc1	15
CCOC(=O)c1nnc(-c2ccccc2)nc1N1CCSCC1	1
O=C(O)CN=C1CC(c2ccccc2)CC(=O)/C1=C(/O)CCCN1C(=O)c2ccccc2C1=O (stereo not given)	15
CC(C)CCNC(=O)Cc1csc(-c2ccccc2)n1	6
O=C(Nc1ccc(F)cc1)c1ccc(-n2cncn2)c([N+](=O)[O-])c1	-9
COc1ccccc1CNC(=O)c1ccc(OCC2CCCO2)cc1 (stereo not given)	7
CCCCNCc1cc2ccccc2o1	16
COC(=O)c1cc(NS(=O)(=O)c2ccc(NCc3cccnc3)c([N+](=O)[O-])c2)cc(C(=O)OC)c1	20
CC(C)(C)c1ccc(C(=O)NCC(=O)OCN2C(=O)c3ccccc3C2=O)cc1	11
S=C(NCc1ccccc1)N1CCN(Cc2ccc3c(c2)OCO3)CC1	6
CCOC(=O)Cc1csc(NC(=O)CSc2ccc(Br)cc2)n1	8
O=C(CN1C(=O)/C(=C2\SC(=S)N(C3CCS(=O)(=O)C3)C2=O)c2ccccc21)Nc1ccc(F)cc1 (stereo not given)	21
COc1ccc(/C=N/NC(=O)c2ccc(Cl)cc2)cc1COC(C)=O	10
COc1ccc2nc(N3C(=O)/C(=C/c4ccc(Cl)cc4)NC3=S)sc2c1	14
NNc1cc([N+](=O)[O-])cc2c1C(=O)N(Cc1ccccc1)S2=O (stereo not given)	6
CCc1nc2ccccc2c(C(=O)OCC(=O)C(C)(C)C)c1C	10
O=C(NCCn1cc(SCc2ccc(F)cc2)c2ccccc21)c1ccccc1F	3
COc1ccc(CCNC2CC(=O)N(N(C)C)C2=O)cc1OC (stereo not given)	9
The list continues:
SMILES	Calb biofilm kill
Cc1ccccc1NC(=S)N(Cc1cccnc1)Cc1ccccc1Cl	2
CCn1c(=NC(=O)c2cccc(N3C(=O)CCC3=O)c2)sc2c(C)ccc(OC)c21	23
COc1ccc(S(=O)(=O)NC(C(=O)NCCc2ccccn2)C(C)C)cc1 (stereo not given)	15
O=C(NCC(c1ccco1)N1CCCCC1)C(c1ccccc1)c1ccccc1 (stereo not given)	18
NC(=O)CSc1nccn1Cc1ccc(Cl)cc1	-4
CC(=O)Nc1ccc(C(=O)N/N=C/C2CC3C=CC2C3)cc1 (stereo not given)	8
COCC(C)NC(=S)NCCc1ccc(Cl)cc1Cl (stereo not given)	10
Cc1ccc(OCC(=O)Nc2ccc3c(c2)OCO3)cc1C	24
O=C(O)c1ccc(N=NN2CCCC2)cc1	20
CC(C)OC(=O)CSc1nnc2c(n1)[nH]c1ccc(F)cc12	7
O=C(O)c1cc(N/N=C/c2ccc(N3CCOCC3)cc2)ccc1Cl	19
O=C(COC(=O)CNC(=O)c1ccccc1F)NCC(F)(F)F	21
CCN(CC)S(=O)(=O)c1ccc(NC(=O)c2ccc(CN3CCOCC3)cc2)cc1	10
O=C(Nc1ncccn1)C1c2ccccc2Oc2ccccc21	11
CCOC1(C)OCC(=O)[C@]2(CCC3C4CCC5=CC(=O)C=CC5(C)C4C(=O)CC32C)O1 (stereo not given in full)	13
Cc1ccc(Nc2c(-c3ccco3)nc3ccccn23)cc1	17
Cc1cc(SCC(=O)Nc2cccc(S(=O)(=O)NC3=NCCCCC3)c2)nc2ccccc12	2
CC(=O)N/N=C(\C)c1ccc2c(c1)OCCO2	8
S=C(Nc1ccccc1Cl)N(CCCN1CCOCC1)Cc1ccco1	15
O=C(Cn1ccc([N+](=O)[O-])n1)Nc1nccs1	15
COc1ccc(CCNC(=S)N2CCC(C(N)=O)CC2)cc1	7
OCCN(CC#CCC(O)(c1ccccc1)C1CCCC1)CCO (stereo not given)	16
CCOC(=O)N1CCN(C(=O)CN(c2ccc(OC)cc2)S(C)(=O)=O)CC1	10
Cn1c(=O)c2c(nc(NCc3ccco3)n2C/C=C/c2ccccc2)n(C)c1=O	10
Cc1cc2c(nc1C)CCCN2C[C@@H](C)O/N=C1/[C@H]2CCn3c(=O)n(-c4ccccc4)c(=O)n3[C@H]2[C@H](O)[C@@H]2O[C@H]12	15
Cc1c(Cl)cccc1NC(=S)/C(=C(\[O-])c1ccc(Cl)s1)[n+]1ccccc1	21
O=C(CSc1nnc(-c2ccccc2)c(-c2ccccc2)n1)Nc1ccc(Br)cn1	-7
CCCc1nn(C)c(C(=O)Nc2cccc3ccccc23)c1Cl	21
CCOC(=O)C1(CC2CC2)CCN(C(=O)c2ocnc2C)CC1	13
CC1(C)Cc2c(sc3[nH]c(=S)[nH]c(=O)c23)CO1	19
Cc1cc(NC(=O)CSc2nccn2-c2cccc(C)c2C)no1	18
COc1ccc(CNC(=O)C2CCN(S(C)(=O)=O)CC2)c(OC)c1	15
COc1cccc(C(=O)N2CCN(Cc3cc(Br)ccc3OC)CC2)c1	17
CC(C)NC(=O)CSCc1c(F)cccc1Cl	14
CCN=C1SC(CC(=O)NCc2ccccc2)C(=O)N1CC (stereo not given)	29
COC(=O)CCC(=O)NC(=S)Nc1ccc(S(=O)(=O)N2CCCC2)cc1	21
CCCC12CN3CCN(CC(C3)/C1=N\NC(=O)c1ccccc1N)C2	23
COc1cc(CCCN2C(N)=NC[C@@H]2Cc2ccccc2)cc(OC)c1OC	16
CCCc1ccc(C(=O)NNc2ccc(F)cc2)cc1	13
S=C(Nc1ccccc1Cl)N1CCCCC1	6
O=C(c1ccccc1)N1CN2CN(C(=O)c3ccccc3)CC([N+](=O)[O-])(C2)C1	14
CSc1cccc(NC(=S)N(Cc2ccccc2)Cc2cccnc2)c1	18
O=C(O)Cc1sc(N/N=C\c2ccccc2)nc1-c1ccccc1	15
O=C(NNc1nc(-c2ccccc2)cs1)c1cccs1	26
CC(=O)Nc1cccc(N=NN2CCCCC2)c1	-28
Clc1cccc(-c2nc3nc4ccccc4nc3n2Cc2ccccc2)c1	10
CC(C)(C)c1ccc(S(=O)(=O)N2CCC(O)(c3ccc(Cl)cc3)CC2)cc1	13
Cc1ccc(C2N(c3ccc(Cl)cc3)C(=O)N3CCCN23)cc1 (stereo not given)	14
Cn1c(C(C(=O)NCC2CCCO2)N(CCc2ccccc2)C(=O)Cn2nnc3ccccc32)nc2ccccc21 (stereo not given)	25
O=c1[nH]cc(-c2ccccc2)c(=O)[nH]1	17
COc1ccc(-c2nc(CN3CCN(c4ccccc4OC)CC3)c(C)o2)cc1	31
O=C1CC(c2ccco2)CC(O)=C1C=NCCN1CCN(C(=O)Nc2ccc(Cl)cc2)CC1 (stereo not given)	7
Cc1cccc(C)c1NC(=O)COc1ccc2c(C)c(Cc3ccccc3)c(=O)oc2c1	3
CCOc1ccc2ccccc2c1/C=N\NC(=O)OC	1
O=C(O)[C@H](CSCc1ccccc1)NS(=O)(=O)c1ccc(F)cc1	0
O=C(O)CNC(=O)c1nc(-c2ccccc2)n(-c2ccccc2)n1	11
CCn1c(/C=C/c2ccccc2C)nc2ccccc2c1=O	11
O=C(O)c1ccc2ncsc2c1	17
Cc1cccc(/C(N)=N/OC(=O)c2ccc(Cl)cc2Cl)c1	14
COc1cccc2oc(-c3ccco3)cc(=O)c12	6

Part of the list above, bar-delimited.
compound | Calb biofilm kill
CC(C)(C)c1ccc(S(=O)(=O)N2CCC(O)(c3ccc(Cl)cc3)CC2)cc1 | 13
Cc1ccc(C2N(c3ccc(Cl)cc3)C(=O)N3CCCN23)cc1 (stereo not given) | 14
Cn1c(C(C(=O)NCC2CCCO2)N(CCc2ccccc2)C(=O)Cn2nnc3ccccc32)nc2ccccc21 (stereo not given) | 25

Next structures:
SMILES	Calb biofilm kill
O=c1[nH]c2c(s1)C(c1cccnc1)C1C3CCC(C3)C1S2 (stereo not given)	16
CCn1ccnc1[C@@H]1C[C@H]2CN(Cc3cccc(Cl)c3)C(=O)[C@]23CCCN13	36
O=C(Cc1ccc(F)cc1)Nc1cccc(-c2ccc3nncn3n2)c1	15
CC(C)C(=O)Nc1ccc(C(=O)N/N=C/C2CC3C=CC2C3)cc1 (stereo not given)	9
CC(=O)c1cccc(NC(=S)Nc2ccn(Cc3cccc4ccccc34)n2)c1	7
Cc1c(C(=O)c2ccccc2)oc2ccc3ccccc3c12	15
Cc1ccc(Nc2nc3nonc3[nH]c2=O)cc1Cl	13
CNc1[nH]ncc1[N+](=O)[O-]	21
COc1ccc(N2CCN(C(=O)Nc3ccccc3Cl)CC2)cc1	1
C=C(C)CNC(=S)Nc1cccc2cnccc12	16
CCCCN1C2CCCC1CC(NC(=O)C1CCCCC1)C2 (stereo not given)	15
Nn1c(Cc2ccccc2F)n[nH]c1=S	11
COc1cccc(C(=O)Nc2ccc(C3CC3(Cl)Cl)cc2)c1 (stereo not given)	7
Cc1cc(C)n(-c2ccc(C(=O)Nc3cccc([N+](=O)[O-])c3)cc2)n1	9
C=CCNC(=O)COc1cc(C)ccc1C	5

Of the compounds above, 18 contain an aryl methoxy group.
SMILES	Calb biofilm kill
COc1ccc2nc(NC(=O)C3=NN(c4ccccc4)C(=O)CC3)sc2c1	-2
COc1cnc(-c2ccccc2)nc1Oc1ccc(Cl)cc1C	12
COc1ccc(Nc2cc(C(=O)NCc3ccco3)c3ccccc3n2)cc1	10
COc1ccccc1CNC(=O)c1ccc(OCC2CCCO2)cc1 (stereo not given)	7
COc1ccc(/C=N/NC(=O)c2ccc(Cl)cc2)cc1COC(C)=O	10
COc1ccc2nc(N3C(=O)/C(=C/c4ccc(Cl)cc4)NC3=S)sc2c1	14
COc1ccc(CCNC2CC(=O)N(N(C)C)C2=O)cc1OC (stereo not given)	9
CCn1c(=NC(=O)c2cccc(N3C(=O)CCC3=O)c2)sc2c(C)ccc(OC)c21	23
COc1ccc(S(=O)(=O)NC(C(=O)NCCc2ccccn2)C(C)C)cc1 (stereo not given)	15
COc1ccc(CCNC(=S)N2CCC(C(N)=O)CC2)cc1	7
CCOC(=O)N1CCN(C(=O)CN(c2ccc(OC)cc2)S(C)(=O)=O)CC1	10
COc1ccc(CNC(=O)C2CCN(S(C)(=O)=O)CC2)c(OC)c1	15
COc1cccc(C(=O)N2CCN(Cc3cc(Br)ccc3OC)CC2)c1	17
COc1cc(CCCN2C(N)=NC[C@@H]2Cc2ccccc2)cc(OC)c1OC	16
COc1ccc(-c2nc(CN3CCN(c4ccccc4OC)CC3)c(C)o2)cc1	31
COc1cccc2oc(-c3ccco3)cc(=O)c12	6
COc1ccc(N2CCN(C(=O)Nc3ccccc3Cl)CC2)cc1	1
COc1cccc(C(=O)Nc2ccc(C3CC3(Cl)Cl)cc2)c1 (stereo not given)	7
